# Cruzain inh Det = qHTS Assay for Promiscuous and Specific Inhibitors of Cruzain (with detergent) | Cruzipain (Trypanosoma cruzi), P25779 | purified cruzain, Z-FR-AMC fluorescence, 0.01% Triton | Potency, µM, for inactives: max response, negative = inhibition, most hits filed as inhibitors | 200,000 compounds, 0.43% hits; active = well fitted curve in the direction sought with a large enough effect; inconclusive = small, poorly fitted or top-dose-only effect, or another doubt; inactive = no such curve, though single readings can be large; an effect the other way counts as inactive or inconclusive;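 also: plate controls were neutral wells for no effect and buffer without enzyme for full effect; nearly all actives have a fitted effect of over 40% in size; top concentration of the series not given in the record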
# Target sequence (P25779 123-467 limits assumed): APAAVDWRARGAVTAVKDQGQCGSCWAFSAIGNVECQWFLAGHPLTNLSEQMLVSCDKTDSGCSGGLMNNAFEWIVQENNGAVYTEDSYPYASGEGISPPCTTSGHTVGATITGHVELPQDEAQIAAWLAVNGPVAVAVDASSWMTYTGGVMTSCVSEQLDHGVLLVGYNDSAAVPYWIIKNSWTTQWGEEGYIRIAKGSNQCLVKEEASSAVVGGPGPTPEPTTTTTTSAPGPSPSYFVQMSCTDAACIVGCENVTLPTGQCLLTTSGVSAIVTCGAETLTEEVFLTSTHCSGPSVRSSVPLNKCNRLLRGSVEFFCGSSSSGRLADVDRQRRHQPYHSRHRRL
#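 Read-out: AMC fluorescence (360 nm excitation, 450 nm emission), four reads over 2 min, first-to-third difference used. Conditions: cruzain 1.5 nM, Z-FR-AMC 2 uM, pH 5.5 acetate, 5 mM DTT, 0.01% Triton X-100.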
# RE007 growth inh = qHTS Assay for Inhibitors of the HIV-1 protein Vpr; S. pombe RE007 Vpr strain, BacTiter-Glo ATP luminescence, 24 h; control for the full effect not named in the record; Potency, µM (titrated, usually from 92.2 µM), for the others: at the top dose activity change, negative = less growth; 360,000 compounds, 0.21% hits; active = well fitted falling curve with a large enough effect; inconclusive = small, poorly fitted or top-dose-only effect; inactive = no such curve, though single readings can be large or run the other way;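 also: % is scaled to controls: 0 for no effect and ±100 for the full control effect; nearly all actives have a fitted effect of over 50% in size; the assay follows cell death caused by Vpr and the record does not say whether a fall means rescue or toxicity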
#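 Fission yeast RE007 carrying one integrated HIV-1 vpr copy, seeded at OD 0.01 in PMG+AL medium with 23 nL pinned compound. Grown 24 h at 30 degrees; viability read by BacTiter-Glo luminescence after 5 min.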
# StopGo reporter = High Throughput Screening for Foot and Mouth Disease Virus Antivirals. 410,000 compounds, 1.2% hits. human cells with a luciferase reporter of 2A StopGo recoding; control for the full effect not named in the record. Potency, µM (doses to about 57.9 µM), for inactives: at the highest dose signal change, negative = less light; active = well fitted falling curve with a large enough effect; inconclusive = small, poorly fitted or top-dose-only effect; inactive = no such curve, though single readings can be large or run the other way; tested in HEK293T cells; also: % is scaled to controls: 0 for no effect and ±100 for the full control effect; nearly all actives have a fitted effect of over 45% in size; luciferase light after 4 h
# NS1 inh = qHTS Assay for Inhibitors of Influenza NS1 Protein Function. S. cerevisiae slowed by influenza A NS1, growth recovery by OD600. Potency, µM (top dose mostly 46.1 µM), inactives show top-dose activity, positive = more growth. 270,000 compounds, 0.4% hits. AID 2326, 2010; also: actives are rising curves; nearly all actives have a fitted effect of over 50% in size
#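 Compounds were scored for reversing the slow growth caused by influenza A NS1 in S. cerevisiae, measured by optical density at 600 nm. Assay medium contained 2% galactose at pH 6.0; NS1-free yeast of the same strain were the positive control.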
# SARS PLP yeast = qHTS of Yeast-based Assay for SARS-CoV PLP; S. cerevisiae expressing SARS-CoV PLpro, growth rescue; control for the full effect not named in the record; 330,000 compounds, 0.19% hits; Potency, µM (titrated, usually from 32.9 µM), for inactives: at the top dose activity, positive = growth rescue; also: 0% is about no effect; nearly all actives have a fitted effect of over 55% in size; growth read by luminescence after 48 h
# Marburg entry inh = qHTS for inhibitors of binding or entry into cells for Marburg Virus. Marburg virus pseudotyped entry inhibition, cell reporter; control for the full effect not named in the record; about a third of the inactives were read at about 46 µM. Potency, µM (series often up to 37.8 µM), for the others: at the highest dose activity change, negative = inhibition, most hits filed as inhibitors. 300,000 compounds, 1.8% hits. AID 540276, 2011; active = well fitted inhibition curve with a large enough effect; inconclusive = small, poorly fitted or top-dose-only effect, or effect the other way; inactive = flat fitted curve, though single readings scatter; tested in HEK293 cells; about a fifth of its hits are not listed in these tables; also: % is scaled to controls: 0 for no effect and ±100 for the full control effect; luciferase read-out
# Lassa entry inh = qHTS for Inhibitors of binding or entry into cells for Lassa Virus. Lassa virus pseudotype entry inhibition, cell reporter; control for the full effect not named in the record. Potency, µM (series often up to 37.9 µM), inactives show at the highest dose activity change, negative = inhibition, most hits filed as inhibitors. 300,000 compounds, 1.2% hits. AID 540256, 2011; active means well fitted inhibition curve with a large enough effect; inconclusive means small, poorly fitted or top-dose-only effect, or effect the other way; inactive means flat fitted curve, though single readings scatter; tested in HEK293 cells; also: % is scaled to controls: 0 for no effect and ±100 for the full control effect; nearly all actives have a fitted effect of over 50% in size; luciferase read-out
# Cruzain noTriton = qHTS Assay for Promiscuous and Specific Inhibitors of Cruzain (without detergent); Cruzipain (Trypanosoma cruzi), P25779; purified cruzain, Z-FR-AMC fluorescence, no detergent; Potency, µM, without a hit: max response, negative = inhibition, most hits filed as inhibitors; 200,000 compounds, 2.3% hits; active = well fitted curve in the direction sought with a large enough effect; inconclusive = small, poorly fitted or top-dose-only effect, or another doubt; inactive = no such curve, though single readings can be large; an effect the other way counts as inactive or inconclusive;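 also: plate controls were enzyme without inhibitor for no effect and buffer without enzyme for full effect; nearly all actives have a fitted effect of over 40% in size; top concentration of the series not given in the record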
#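 Detergent-free condition (0.00005% Triton X-100) in acetate buffer pH 5.5 with DTT. 1.5 nM enzyme and compound were pre-mixed 15 min, then 2 uM Z-FR-AMC substrate added; reaction progress from fluorescence change between first and third reads (60 s).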
# Numbers without * were called inactive; u = inconclusive; x = not tested or not shown; & = joins results of further samples; [ ] = another dose, or the depositor's remark. Unless noted, calls follow the shape of the dose curve; as a rule, active means well fitted rising curve with a large enough effect; inconclusive means small, poorly fitted or top-dose-only effect; inactive means no such curve, though single readings can be large or run the other way. Potency is read from the fitted curve at half-maximal effect. Not a hit list; about 4.7% have a hit in one of these screens.
# The opening two compounds, ahead of the listing:
SMILES,Cruzain inh Det,RE007 growth inh,StopGo reporter,NS1 inh,SARS PLP yeast,Marburg entry inh,Lassa entry inh,Cruzain noTriton
O=C(NCc1ccccn1)c1ccc2nc(C3CCCCC3)oc2c1,x,0%,30%,-17%,7%,7%[46.1 µM],-5%[46.1 µM],x
CCOC(=O)C1CCCN(C(=O)c2cc(S(=O)(=O)N(C)C)ccc2N2CCCC2)C1 (stereo unspecified),x,6%,1%,x,-2%,-12%[46.1 µM],-25%,x

# The listing (from the top)
SMILES,Cruzain inh Det,RE007 growth inh,StopGo reporter,NS1 inh,SARS PLP yeast,Marburg entry inh,Lassa entry inh,Cruzain noTriton
O=C(NCc1ccccn1)c1ccc2nc(C3CCCCC3)oc2c1,x,0%,30%,-17%,7%,7%[46.1 µM],-5%[46.1 µM],x
CCOC(=O)C1CCCN(C(=O)c2cc(S(=O)(=O)N(C)C)ccc2N2CCCC2)C1 (stereo unspecified),x,6%,1%,x,-2%,-12%[46.1 µM],-25%,x
COc1ccc(OCC(=O)OC(C)CN2CCCCC2)cc1 (stereo unspecified),x,-14%,-8%,13%,7%,-15%,23%,x
CCS(=O)(=O)N1Cc2ccccc2CC1C(=O)Nc1nc(C)cs1 (stereo unspecified),x,2%,49%[activator],3%,-2%,u,u,x
NC(=O)c1ccc(-c2ccccc2F)cc1,x,1%,27%,-4%,0%,x,x,x
O=C(NC1CCCC1)c1c(O)nc2sccn2c1=O,x,-26%,-11%,x,-11%,u,3%,x
CC(NC(=O)Nc1cccc(F)c1)c1ccc2c(c1)OCO2 (stereo unspecified),x,19%,-15%,-4%,-11%,x,x,x
O=C(/C=N/NC(=O)c1ccccc1Br)c1ccccc1,x,11%,19%,-8%,-1%,-7%[46.1 µM],4%[46.1 µM],x
Cc1ccc(NC(=O)CCc2c(C)nn(-c3ccc(N4CCOCC4)nn3)c2C)cc1,x,16%,11%,-14%,2%,x,x,x
O=C(COC(=O)c1ccccc1Sc1ccc(C(F)(F)F)cc1[N+](=O)[O-])NC(=O)NC1CCCC1,-11%,-8%,u,14%,-12%,-1%,x,-9%
CC1CCN(Cc2nnnn2CCCC(=O)NC(c2ccccn2)C(F)(F)F)CC1 (stereo unspecified),x,4%,-9%,-4%,-1%,13%,6%,x
CCn1c(CC(=O)Nc2ccc(C)c(Cl)c2)nnc1SCCOc1ccc(OC)cc1,6.3%,18%,15%,12%,2%,5%,9%,u
O=C(COC(=O)C1CCC(N2C(=O)C3C4CCC(C4)C3C2=O)CC1)c1ccc(F)cc1 (stereo unspecified),x,-20%,1%,7%,3%,2%[46.1 µM],2%[46.1 µM],x
COc1ccc(-c2nnn(CC(=O)N(c3cccc(O)c3)C(C)C(=O)NC3CCCC3)n2)cc1OC (stereo unspecified),x,2%,-8%,-1%,0%,-20%[46.1 µM],-24%,x
c1csc(-c2noc(CN3CCN4CCCC4C3)n2)c1 (stereo unspecified),x,-15%,1%,-2%,1%,10%[46.1 µM],-1%[46.1 µM],x
NC(=O)COC(=O)CC(NC(N)=O)c1ccc(Cl)cc1 (stereo unspecified),1.4%,-4%,0%,-12%,13%,-10%,-1%,4%
CC(=O)Nc1ccc(SCC(=O)c2cc(C)ccc2C)cc1,x,30%,4%,-15%,-1%,8%[46.1 µM],u,x
O=C(Oc1ccc(Cl)cc1)c1ccc(COC(=O)c2cnccn2)cc1,-3.5%,9%[3.69 µM],-9%,-123%,-16%,0%,3%,u
CC(NCCOCCOc1ccccc1)c1ccccc1 (stereo unspecified),-1.2%,-9%,-11%,4%,-9%,1%,-17%,2%
COC(=O)c1ccc(NC(=O)Cc2ccc(F)cc2)cc1,x,-3%,1%,-6%,-2%,u,-18%[46.1 µM],x
O=C1CN(C(=O)CN2C(=O)NC3(CCCCC3)C2=O)c2ccccc2N1,x,6%,10%,x,1%,u,-18%,x
Cc1n[nH]c(=O)c2c(NC(=O)CSc3ccc(F)cc3)oc(C)c12,x,-4%,-19%,x,2%,-2%,-15%,x
COc1ccc(OC)c(C(=O)Nc2ccc3[nH]ccc3c2)c1,x,-12%,-5%,x,x,-9%,u,x
O=C(Nc1nc2ccccc2[nH]1)c1ccccc1OC(F)F,x,u,-39%,-14%,-1%,u,u,x
Cc1ccc(CN2C(=O)CCC2C(=O)NCCCN2CCCC(C)C2)cc1 (stereo unspecified),2.9%,13%,-2%,-5%,7%,3%,2%,9%
OC1(CNCc2ccccc2)C2CC3CC(C2)CC1C3 (stereo unspecified),x,0%,-19%,9%,0%,u,-16%,x
C/C(=N\NS(=O)(=O)c1ccc(C)cc1)c1cccs1,-4.1%,1%,69%[activator],0%,1%,-4%,8%,-2%
O=C(Nc1cccs1)OCCN1CCN(Cc2ccccc2)CCC1=O,-0.3%,-5%,-22%,-9%,-9%,-23%,12%,-9%
CCCCc1c(CCC)c(=N)c2ccccc2n1C,-2.8%,u,u,-46%,3%,u,u,-1%
O=S(=O)(NCc1ccc2c(c1)OCO2)c1cccc2nsnc12,x,1%,24%,u,0%,x,x,x
O=C(CSc1nnc(-c2ccco2)o1)N1CCN(c2ccccc2)CC1,x,-3%,u,x,-2%,-21%[46.1 µM],-29%,x
CCOC(=O)c1ccc(Oc2coc3cc(O)ccc3c2=O)cc1,x,5%,-14%,2%,-1%,-1%[46.1 µM],1%,x
Cc1cccc2cc(C#N)c(NCCNC(=O)COc3ccccc3)nc12,x,4%,-18%,-1%,11%,x,x,x
Cc1ccc(-n2c(/C=C/c3ccccn3)nc3ccccc3c2=O)cc1,x,8%,-18%,0%,-1%,x,x,x
O=C(Nc1ccc(OCC(=O)N2CCOCC2)cc1)c1ccccc1F,x,11%,-12%,-6%,1%,-30%[46.1 µM],u,x
COc1ccccc1NC(=O)COC(=O)[C@@H]1CCCN1C(=O)c1cccs1,2.2%,-23%,-13%,-6%,-5%,-10%,14%,0%
COc1ccc(C(=O)N2CCc3ccccc32)cc1S(=O)(=O)N1CCOCC1,x,-4%,15%,x,1%,u,7%,x
CN1CCN(C(=O)c2c(O)c3cccc4c3n(c2=O)CCC4)CC1,-1.0%,-4%,-29%,-8%,2%,-2%,-17%,5%
CCOC(=O)C1=C(C)Nc2ncnn2C1c1ccc(N(C)C)cc1 (stereo unspecified),-4.2%,10%&0%,-1%,-3%,12%,3%[46.1 µM],-5%[46.1 µM],6%
CC(C)NC(=O)C(=O)NNC(=O)CCc1ccccc1,x,-21%,-9%,5%,0%,u,u,x
Cc1cc2oc(C(=O)Nc3sc4c(c3C(=O)NCc3ccccc3)CCCC4)cc(=O)c2cc1C,-0.3%,x,-3%,x,x,7%[46.1 µM],7%[46.1 µM],0%
O=[N+]([O-])c1cccc(S(=O)(=O)N2CCN(S(=O)(=O)N3CCCCCC3)CC2)c1,x,-1%,6%,7%,0%,9%[46.1 µM],3%[46.1 µM],x
N#CC1=C(N)C(C#N)(C#N)C(c2cccnc2)C2CC(c3ccccc3)CC=C12 (stereo unspecified),-6.9%,-14%,-24%,28%,-23%,16%,-20%,u
COc1cc(OC)cc(C(=O)Nc2ccc(S(=O)(=O)N3CCOCC3)cc2)c1,x,15%,-7%,-6%,16%,x,x,x
CC(OC(=O)Cn1[nH]c(=O)c2ccccc2c1=O)C(=O)Nc1ccc(F)cc1 (stereo unspecified),x,10%,-12%,x,6%,-2%,-3%,x
CC(=O)N/C(=C\c1ccccc1)C(=O)Nc1ccccc1C,x,-11%,17%,3%,0%,x,x,x
COC(=O)c1ccc(NC(=O)C2CCCN(S(=O)(=O)c3cnc[nH]3)C2)cc1 (stereo unspecified),1.9%,-4%,6%,1%,3%,x,x,3%
CCOC(=O)C1=C(C)N=C2SC=C(C)N2C1c1ccc(OC)cc1 (stereo unspecified),x,-4%,-5%,-1%,-1%,5µM*,u,x
Fc1ccc(/C=N/Nc2ncnc3nc[nH]c23)cc1F,-9.0%,1%,46%[activator],22%,1%,u,4%,-2%
COc1cccc(OC)c1C(=O)N1CCN=C1SCc1cccnc1,1.8%,-6%,-7%,0%,5%,17%,u,-8%
COc1cc(C[C@@H](C)N)c(OC)cc1I,-2.6%,-4%[18.4 µM],-13%,-2%&6%,1%,u,x,-5%
CC(=O)c1ccc(N2CCN(C(=O)CCNC(=O)Cn3ccc4ccccc4c3=O)CC2)cc1,x,1%,-16%,21%,2%,4%[46.1 µM],33%[46.1 µM],x
CCCCNC(=S)N1CCN(c2ccccc2Cl)CC1,x,-3%,17%,x,-8%,u,14%,x
COc1ccc(S(=O)(=O)N2CCOC2CNC(=O)C(=O)NCCc2ccc(OC)c(OC)c2)cc1C (stereo unspecified),-3.7%,-9%,u,0%,10%,u,u,u
C=CCSc1nc2sc(C)c(C)c2c(=O)n1N,0.2%,1%,-7%,-12%,-12%,7%,4%,-4%
COc1ccc(OC)c(NC(=O)c2noc3c2CCCC3)c1,-6.9%,x,23%,x,x,x,u,-22%
CC1CN(C(=O)C(c2ccccc2)c2ccccc2)CC(C)O1 (stereo unspecified),0.9%,7%[3.69 µM],-26%,12%,4%,2%,12%,11%
Cc1nc2sc(-c3ccccc3)cc2c(=O)n1/N=C/N(C)C,x,12%,40%[activator],-3%,1%,u,u,x
CCOC(=O)c1cccc(Nc2nc(C)cc(C)n2)c1,0.4%,-12%,27%,-12%,-3%,13%[46.1 µM],u,-3%
COc1ccc(/C=N/NC(=O)c2ccccc2[N+](=O)[O-])cc1CN1CCc2cc(OC)c(OC)cc2C1C (stereo unspecified),x,2%,3%,x,2%,u,-24%,x
COc1ccc(CCNC(=O)c2ccc3c(c2)N(Cc2ccc(Cl)cc2)CCS3)c(OC)c1,-5.4%,x,-5%,x,x,u,9%[46.1 µM],-84%

# Source: PubChem BioAssay
